eIF4H FP inh – inhibitors of RNA binding by human eIF4H. Q15056. eIF4H fluorescence polarization binding assay. inhibition, % at 35 µM. 290,000 compounds, 0.94% hits. AID 2012;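 active means 50% or more with normal probe brightness, or confirmed in later tests; inconclusive means above 50% with abnormal brightness, or retests that disagree; inactive means below 50% or failed in later tests; about a fifth of its hits are not listed in these tables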;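 further: calls also rest on retests at 20 µM and on dose response follow-up; 0% = protein and probe with vehicle and 100% = probe without protein; strong numbers were not always called active; many hits fall short of the cut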
HIV Env fusion – inhibitors of HIV Env-mediated cell fusion. HeLa-JRFL Env/CEM21 cell fusion, luciferase. inhibition, % at 12.3 µM. 360,000 compounds, 1.1% hits. AID 651610;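 active means mean replicate inhibition score of at least 50 and every replicate individually at or above 50; inconclusive means only one of the two criteria met; inactive means mean below 50 and not all replicates reaching 50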;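 further: 0% = plate neutral controls and 100% = maraviroc near 300 nM; one replicate is shown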
CSC inhib – blocks cancer stem cells | cancer stem cell-like cells viability, luminescence | 300,000 compounds, 1.1% hits | AID 2717 | inhibition, % at 7.5 µM;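 active means mean at 75% or more and at least half the replicates too; inconclusive means mean and replicates disagree; tested in HMLE shEcad cells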;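 further: 0% = median of negative and 100% = median of positive control wells; the first replicate is given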
Yeast UUG start – modulators of start codon recognition fidelity in yeast | S. cerevisiae UUG-firefly luciferase reporter, luminescence/redox ratio | activity score, % at 18.7 µM | 350,000 compounds, 0.13% hits | AID 602363;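 active means replicate mean at a twofold rise or more, about +100% in these data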;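 further: firefly luciferase made from a UUG start codon reports start codon fidelity; reporter light over untreated wells divided by growth signal over untreated wells; some hits fall short of that in this replicate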
PABP polyA inh – blocks human PABP binding to poly(A) RNA; 290,000 compounds, 1% hits; fluorescence polarization; AID 2014; inhibition, % at 35 µM;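 active means 50% or more with normal probe brightness, or confirmed in later tests; inconclusive means above 50% with abnormal brightness, or retests that disagree; inactive means below 50% or failed in later tests; about a fifth of its hits are not listed in these tables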;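 further: calls also rest on retests at 20 µM and on dose response follow-up; controls were probe without protein and protein plus probe with vehicle; some compounds called inactive have numbers as strong as hits; many hits fall short of the cut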
Target sequence (P11940 whole entry, looked up): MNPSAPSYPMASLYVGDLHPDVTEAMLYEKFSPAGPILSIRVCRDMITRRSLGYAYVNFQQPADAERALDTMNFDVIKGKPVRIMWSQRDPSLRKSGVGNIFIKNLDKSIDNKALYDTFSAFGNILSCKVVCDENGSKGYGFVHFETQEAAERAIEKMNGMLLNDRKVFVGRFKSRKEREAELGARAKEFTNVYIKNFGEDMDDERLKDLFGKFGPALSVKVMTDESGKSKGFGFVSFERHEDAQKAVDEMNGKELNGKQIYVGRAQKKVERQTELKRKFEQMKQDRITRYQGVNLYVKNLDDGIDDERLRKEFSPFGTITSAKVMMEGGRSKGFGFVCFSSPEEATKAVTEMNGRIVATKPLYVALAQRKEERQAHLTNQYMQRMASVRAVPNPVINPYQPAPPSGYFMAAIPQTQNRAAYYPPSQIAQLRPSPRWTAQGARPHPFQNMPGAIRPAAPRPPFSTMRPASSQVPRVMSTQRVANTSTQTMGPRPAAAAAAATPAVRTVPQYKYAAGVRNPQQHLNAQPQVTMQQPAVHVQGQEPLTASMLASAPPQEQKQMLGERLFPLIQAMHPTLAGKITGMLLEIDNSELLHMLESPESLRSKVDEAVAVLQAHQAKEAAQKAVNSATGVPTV
MT1-MMP act inh – inhibitors of human MT1-MMP activation | 360,000 compounds, 0.061% hits | GFP/RFP ratio change, % at 20 µM | P50281 | HT1080 RFP-PRO-GFP cells, GFP/RFP ratio fluorescence, overnight; percent of plate control window, DMSO zero | AID 651647;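 active means GFP/RFP ratio change of at least 30% with cell ATP level not reduced by more than half and red fluorescence within 50% of control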; further: strong numbers were not always called active
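Test system: HT1080 cells expressing an RFP-PRO-GFP fluorescent reporter construct / Compound dosing: single-point 20 µM compound, 1% DMSO / Schedule: cells overnight before dosing, compound overnight, 37 °C, 5% CO2 / Evaluation: GFP/RFP fluorescence ratio / Control set: DMSO and RFP-L50D-GFP cell wells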
Rce1 inh – blocks yeast Ras-converting enzyme | Q03530 | yeast membranes, quenched prenylated peptide cleavage fluorescence | calls only | 290,000 compounds, 0.27% hits | AID 2563;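 active means fall in fluorescence gain of 50% or more versus controls, with final raw signal at or below 3038400; inconclusive means same 50% fall but final raw signal above 3038400; inactive means fall in fluorescence gain under 50%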;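 further: plate controls were neutral control wells for no effect and wells lacking membranes for full effect; tested at 10 µM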
eIF4H FP inh retest – second read-out of eIF4H FP inh, no call of its own (marks repeat the call); inhibition, %; compound at 20 µM; confirmation average;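 mean of two retest wells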
PABP polyA inh retest – also measured in PABP polyA inh; calls as there; inhibition, %; compound at 20 µM; confirmation repeats;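 mean of two retest wells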
MT1-MMP act inh RFP – also measured in MT1-MMP act inh; calls as there; RFP signal change, %; measured here: RFP expression control read;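 0 = vehicle wells; hits needed this value within 50% of zero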
* hit, by the source's call; i = inactive; u = inconclusive; x = no result given; + = active, no number; & = joins results of further samples; [ ] = remark or other dose. Some of the compounds tested (hit frequency here may not be typical).

SMILES	eIF4H FP inh	HIV Env fusion	CSC inhib	Yeast UUG start	PABP polyA inh	MT1-MMP act inh	MT1-MMP act inh RFP	Rce1 inh	others
Cc1ccc(S(=O)(=O)N2CCN(C(=O)c3sccc3C)CC2)cc1	x	x	-6.5	-14.2	x	2.9	3.8	i
COc1ccc(N2CCN(C(CNS(=O)(=O)c3ccc(C)cc3)c3ccccc3)CC2)cc1 (stereo unspecified)	x	-17.3	20.2	x	x	-2.2	-8.6	x
O=S(=O)(c1ccc(Br)cc1)N1CCCC1c1nc2ccccc2s1 (stereo unspecified)	6.3	21.2	7.1	-20.6	-7.6	-2.7	-5.2	i
COc1ccc(-n2c(SC)nnc2-c2c[nH]c3ccccc23)cc1	-1.5	-29.0	x	3.7	5.8	-9.6	-3.1	i
O=C(Nc1c(-c2ccc(Cl)cc2)[nH][nH]c1=O)c1ccccc1Cl	x	-25.2	x	-23.3	x	-1.6	1.5	x
COc1ccc(-c2nc(N)n(C(=O)c3cccs3)n2)cc1	-0.5	20.6	-9.4	-14.7	26.9	0.9	3.7	i
CCN(C(=O)COC(=O)CNS(=O)(=O)c1ccc2ccccc2c1)C1CCCCC1	x	x	-17.6	x	x	3.8	-1.6	i
O=C(NCC1CCCO1)c1ccc(COCC(F)(F)C(F)F)cc1 (stereo unspecified)	6.0	x	-0.8	-9.6	2.0	4.4	-5.5	i
Cc1cc(N)c(NC2=CC(=O)CC(C)(C)C2)cc1C	18.5	-259.7	-10.7	-21.1	23.9	3.3	0.8	i
CN(C)c1cccc(C(=O)NN2C(=O)NC3(CCCCC3)C2=O)c1	x	-27.9	x	-8.1	x	2.2	0.6	x
O=C(CCN1C(=O)/C(=C\c2ccc(F)cc2)SC1=S)Nc1ccccc1	-8.6	13.7	-2.4	-3.8	-1.8	-0.2	-1.3	i
Cc1ccc(N(C)C(=O)c2ccc(CNc3c(N4CCC(C)CC4)c(=O)c3=O)cc2)cc1	5.1	9.7	6.5	-0.9	2.7	-0.5	-5.8	i
COc1ccc(CNC(=O)COC(=O)c2ccc(Br)c(S(=O)(=O)N3CCOCC3)c2)cc1	x	x	2.5	2.6	x	1.1	0.1	x
CCN(CC)c1ccc(/C=N/NC(=O)c2cc(C)nc3ccccc23)cc1	-1.4	16.0	-3.7	-5.4	-9.0	x	x	i
C=CCn1c(=O)c2ccccc2n2c(=S)[nH]nc12	-4.6	1.2	-7.8	-10.7	-10.3	-2.4	1.8	i
COC(=O)c1ccc(Cn2cc([N+](=O)[O-])cn2)cc1	-2.7	4.7	-15.2	x	-6.0	0.3	2.3	i
CC1CCCN(CCCNC(=O)C2CCC(CNS(=O)(=O)c3cccc4nsnc34)CC2)C1 (stereo unspecified)	-10.0	x	-5.5	-9.1	-4.6	-0.6	0.2	i
CC(=O)N1Cc2ccccc2CC1C(=O)NCc1ccccc1F (stereo unspecified)	-3.1	-14.5	-2.4	-9.1	9.2	-0.6	-1.4	i
COc1ccc(N2CCN(Cc3nc4c(c(=O)n(C)c(=O)n4C)n3CCc3ccccc3)CC2)cc1	-0.4	-8.1	2.1	7.2	-2.1	4.6	-1.7	i
O=C(Nc1sc2c(c1C(=O)NCc1ccco1)CCCC2)c1ccc2c(c1)OCO2	18.9	-104.3	8.8	-6.7	12.6	-5.1	-5.6	i
COc1c(O)cccc1[C@@H](O)C1CCN(CCc2ccc(F)cc2)CC1	x	6.5	1.6	4.0	x	-9.9	2.2	i
Cc1cc(O)c(N)c(C)c1Cl	-5.6	7.1	3.0	x	-0.8	-2.8	1.5	i
CC(=O)c1c(C)[nH]c(C(=O)OCc2cccc(Cl)c2)c1C	-8.1	0.2	23.7	-1.5	-10.4	-15.4	-24.7	i
Cc1ccc(CN2CCC(NC(=O)c3ccccc3)CC2)cc1	-4.7	7.2	-3.7	-1.8	2.8	2.3	1.5	i
NS(=O)(=O)c1ccc(NC(=S)N2CCN(Cc3ccc4c(c3)OCO4)CC2)cc1	9.1	-1.0	1.9	x	-9.3	-0.8	-0.5	i
CC(C)c1nnc(NC(=O)C2CCCO2)s1 (stereo unspecified)	10.6	-5.2	-1.8	x	6.6	0.1	3.5	i
COc1ccc(S(=O)(=O)Nc2cc3c(C(C)=O)c(C)oc3c3ccccc23)cc1	2.4	-164.8	68.9	-21.4	8.7	14.7	-3.7	i
CCN1CCN(CC(=O)Nc2ccc(OC(F)(F)F)cc2)CC1	11.2	2.9	-3.2	-9.5	1.1	-3.3	-4.1	i
CC1CCCC(NC(=O)COC(=O)COc2ccccc2Cl)C1C (stereo unspecified)	-13.3	-11.9	-2.3	x	36.3	0.1	2.3	i
Cc1noc(C)c1NC(=O)N(C)C[C@@H]1Oc2ccc(NC(=O)C3CCCCC3)cc2C(=O)N([C@@H](C)CO)C[C@H]1C	x	11.4[16.7 µM]	-9.9	-6.8&-29.5	x	-0.4	1.9	x
COc1ccc2c(c1)CCc1c(C(=O)NCCN3CCOCC3)noc1-2	0.0	x	-7.5	x	-3.1	-2.0	-2.0	i
CCn1c(SCC(=O)c2ccc3c(c2)OCCO3)nnc1C(C)C	-15.8	x	-2.2	-13.5	-1.6	0.5	3.9	x
CCN(Cc1ccccc1)c1ccc(/C=N/N=C(N)N)cc1	4.7	-1.2	102.5*	-14.0	4.3	-12.7	-18.5	+
COc1ccc(OC)c2[nH]c(=O)c(CCNS(=O)(=O)c3ccccc3)cc12	-5.9	x	-4.2	x	-14.0	2.7	4.4	i
CC(=O)c1ccc(NC(=O)c2cccs2)cc1	-7.5	x	3.6	x	-6.7	-6.4	-5.1	i
CCN1CCN(C(=O)c2cc3cc(Cl)ccc3[nH]2)CC1	1.5	-22.2	-1.5	-9.1	10.5	3.4	2.1	i
C/C(=N\N=C\c1ccccc1)c1nnn(-c2nonc2N)c1C	-5.6	-22.1	-7.6	-13.4	1.0	-3.3	-2.0	i
O=C(Nc1ccccn1)c1ccc2ccccc2c1O	12.5	-15.5	0.3	-17.6	11.2	-1.7	5.9	i
CCc1ccc(N(CC(=O)Nc2ccccc2C(=O)N2CCOCC2)S(C)(=O)=O)cc1	-1.6	16.1	-6.3	x	58.2	3.1	3.5	i	eIF4H FP inh retest=-7.3;PABP polyA inh retest=0.5
COc1cccc(OCc2nc3c4cnn(-c5ccccc5)c4ncn3n2)c1	-5.4	x	-8.5	-14.6	-6.5	0.6	-1.8	i
COC(=O)c1sc(OC)cc1OCc1ccc(C)cc1	-6.3	x	2.4	-7.8	-9.3	1.1	-0.8	i
COc1cc2nc(SCc3ccc(F)cc3)n(Cc3cccs3)c(=N)c2cc1OC	-16.0	11.5	0.0	-6.5	-4.9	0.7	-2.2	i
Cc1cc(C)nc(N2CCCC(C(=O)NCc3ccccc3)C2)n1 (stereo unspecified)	9.6	-148.7	2.8	x	5.0	3.3	14.7	i
O=C(CCc1nc2sc3c(c2c(=O)[nH]1)CCCC3)NCCc1ccc(F)cc1	14.2	-9.9	-8.6	-12.2	-2.6	-3.0	-3.3	i
CCCNC(=S)NCc1ccc(Cl)cc1	-6.5	-3.8	-7.5	-34.5	-0.8	5.2	1.2	i
COc1ccc(C(=S)NCS(=O)(=O)c2ccc(C)cc2)cc1	-11.1	7.2	-7.4	x	-2.7	-3.4	0.3	i
O=C1CC(c2ccco2)Cc2nc(NCC3CCCO3)ncc21 (stereo unspecified)	-3.0	x	-20.7	-4.6	18.9	6.3	4.7	i
CCC1=NC(c2ccc(OC)c(OC)c2)N(O)C1(C)C (stereo unspecified)	-1.0	-35.3	6.7	-15.8	4.6	-0.6	3.9	i
O=c1cc(/C=C/c2cccs2)[nH]c2ccccc12	-5.7	x	-5.0	-10.5	0.2	-0.6	-5.2	i
CCCCNC(=O)C1(C)CCCCN1C(=O)c1cccc(OC(F)(F)F)c1 (stereo unspecified)	x	15.5	x	-12.1	x	-5.7	-3.8	x

New compounds follow
SMILES	eIF4H FP inh	HIV Env fusion	CSC inhib	Yeast UUG start	PABP polyA inh	MT1-MMP act inh	MT1-MMP act inh RFP	Rce1 inh	others
COc1ccc2[nH]c(=O)c(CN(Cc3cccnc3)S(=O)(=O)c3ccccc3F)cc2c1	-7.1	-23.1	27.7	-8.9	-3.0	-14.1	-1.4	i
COc1cccc(CNC(=O)C23CN(Cc4ccccc4)CC2C(c2ccc([N+](=O)[O-])cc2)=NO3)c1 (stereo unspecified)	1.9	-11.5	-5.1	-0.6	8.8	-1.6	-4.5	i
O=C(NCCCn1ccnc1)c1ccccc1F	-4.0	2.4	-16.6	-5.4	1.8	1.3	5.7	i
C=CCOc1ccc(C2N3CC4(C)CN2CC(CCC)(C3)C4=O)cc1 (stereo unspecified)	0.7	x	4.1	-6.5	-9.9	-5.6	-4.7	x
Cc1nn(C)cc1C1C(C#N)=C(N)N(c2cccnc2)C2=C1C(=O)CCC2 (stereo unspecified)	u	-23.7	-7.0	x	-1.5	1.5	5.5	i
COc1ccccc1S(=O)(=O)N1CCn2cccc2C1C (stereo unspecified)	x	0.1	x	-19.4	x	-5.9	2.8	x
Cc1ccc(NC(=O)CSc2ccc(S(=O)(=O)N3CCCC3)cn2)cc1F	x	x	-0.5	-19.1	x	-0.8	-9.8	x
COc1ccc(C2c3[nH]c4ccccc4c3C[C@H]3C(=O)N(C4CCN(Cc5ccccc5)CC4)CC(=O)N23)c(OC)c1 (stereo partly specified)	-12.0	6.2	8.4	14.4	-14.2	-1.5	-7.1	i
CC(C)N(CCNC(=O)c1ccc(CS(=O)(=O)c2c(Cl)cccc2Cl)o1)Cc1ccccc1	-16.0	13.2	0.2	x	-10.0	-2.6	-1.8	i
O=C(c1c(F)cccc1F)N1CCC(n2nnc3cc(C(F)(F)F)ccc32)CC1	-3.6	4.1	-2.6	x	4.8	0.6	-5.5	i
Cc1c(C(=O)O)sc2nc(CSc3nnc(-c4ccc(F)cc4)n3C)[nH]c(=O)c12	7.6	14.6	-6.3	-23.5	16.8	-4.6	1.9	i
CN(CC(=O)c1c(N)n(C)c(=O)n(C)c1=O)c1ccccc1	-2.0	3.4	-8.1	-6.0	1.7	0.3	-0.3	i
COc1ccc(C(=O)N/N=C/c2ccc(N3CCOCC3)s2)cc1OC	x	x	-22.5	-28.1	x	3.9	3.5	x
O=C(Cc1ccc(S(=O)(=O)N2CCOCC2)s1)Nc1ccc2c(c1)CCC2	0.7	x	-0.3	5.9	3.3	2.7	-2.9	i
CCOc1ccc(C(=S)NC2CCCCC2)cc1OCC	-8.4	3.3	-12.7	-23.9	-1.0	3.2	2.0	i
COc1ccc(S(=O)(=O)NCC2CCCN(Cc3ccc(OC)cc3F)C2)cc1 (stereo unspecified)	-5.7	0.0	-11.5	-24.5	-14.6	3.6	3.8	i
CC(C)Cc1cc(C(=O)O)n[nH]1	0.1	-18.4	-0.4	-15.4	6.2	-4.0	2.2	i
CCC(C)NC(=S)Nc1ccc(C(=O)OC)cc1 (stereo unspecified)	5.5	39.4	-3.8	x	-0.2	-1.4	-13.5	i
CN(C)S(=O)(=O)N1CCN(c2ccc([N+](=O)[O-])c(NC3CC3)c2)CC1	7.1	20.6	-15.3	x	0.4	-1.4	-9.0	i

High-throughput results as filed in PubChem.
